Compound activity from PubChem BioAssay.
PV pol inh: poliovirus RdRp elongation inhibitors, primary screen, biochemical, fluorescence polarization, total intensity | poliovirus polymerase elongation; stronger effect = lower value | AID 588519, 2011 | Genome polyprotein (Poliovirus type 1 (strain Mahoney)), P03300 | hit rate 0.66% among 150,000 | % elongation, % (compound at 16.7 µg/mL); in the data active = % elongation below about 90%; note: some results filed as inactive read as strong as hits
Target sequence (P03300 1749-2209 limits assumed): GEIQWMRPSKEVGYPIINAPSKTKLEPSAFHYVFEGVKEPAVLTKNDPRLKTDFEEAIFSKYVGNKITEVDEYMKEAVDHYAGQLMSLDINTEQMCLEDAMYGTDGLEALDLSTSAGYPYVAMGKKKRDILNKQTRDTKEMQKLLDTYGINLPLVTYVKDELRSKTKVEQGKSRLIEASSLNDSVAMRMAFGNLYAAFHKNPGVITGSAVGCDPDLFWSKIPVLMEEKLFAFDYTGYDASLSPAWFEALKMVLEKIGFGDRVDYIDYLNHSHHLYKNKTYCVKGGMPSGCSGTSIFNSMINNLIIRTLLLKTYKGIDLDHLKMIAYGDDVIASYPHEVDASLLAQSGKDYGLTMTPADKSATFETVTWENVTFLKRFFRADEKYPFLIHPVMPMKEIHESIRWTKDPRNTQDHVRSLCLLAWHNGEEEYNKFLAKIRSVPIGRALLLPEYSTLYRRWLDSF
PV pol inh intensity: further read-out of PV pol inh, marked with its call; % elongation; measured here: total intensity read-out; formula for this scale not given here;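 total fluorescence in place of polarization; lower means less elongation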
* = called active by the depositor.

Screening Cc1ccc(O)c(-c2n[nH]c3c2C(c2ccc(F)cc2)N(Cc2ccco2)C3=O)c1 (configuration not stated) returned PV pol inh 103.0 and PV pol inh intensity 108.0.
Screening Cc1ccc(NC(=O)Cn2c(=O)n(CCc3ccccc3)c(=O)c3c4c(sc32)CCCC4)cc1C returned PV pol inh 107.0 and PV pol inh intensity 113.0.
Screening CCc1ccccc1N(C)C(=O)c1cn(CC(C)C)c(=O)c2cc(OC)c(OC)cc12 returned PV pol inh 106.0 and PV pol inh intensity 108.0.
O=C(O)Cn1nc(N2CCN(c3ccc(F)cc3)CC2)ccc1=O was read as PV pol inh 112.0 and PV pol inh intensity 106.0.
Cc1ccc(N(C(=O)COc2ccccc2C)S(=O)(=O)c2ccc(Cl)cc2)cc1 was read as PV pol inh 100.0 and PV pol inh intensity 103.0.
`COc1ccc(Cl)cc1Nc1sc(C(=O)c2ccccc2)c(N)c1C(=O)Nc1ccccc1` gave PV pol inh 108.0 and PV pol inh intensity 112.0.
Screening Cc1cccc(-c2nc3scc(CCNS(=O)(=O)c4ccc(F)c(C(F)(F)F)c4)n3n2)c1 returned PV pol inh 106.0 and PV pol inh intensity 109.0.
Screening COc1cccc(Cn2c(=O)n(-c3cccc(Cl)c3C)c(=O)c3c4c(sc32)CN(C(C)=O)CC4)c1 returned PV pol inh 109.0 and PV pol inh intensity 114.0.
Screening CCc1ccc(S(=O)(=O)Nc2cccc(-c3ccc(N4CCCCC4)nn3)c2)s1 returned PV pol inh 110.0 and PV pol inh intensity 112.0.
Screening CCOC(=O)c1c(S(=O)(=O)NCC(=O)N(C)Cc2ccccc2)c(C)n(C)c1C returned PV pol inh 105.0 and PV pol inh intensity 115.0.
COc1cccc(CNC(=O)CCc2c(C)c3cc4c(C)coc4cc3oc2=O)c1 was read as PV pol inh 103.0 and PV pol inh intensity 100.0.
For Cc1ccc(S(=O)(=O)C2(C(=O)Nc3ccc(C)c(Cl)c3)CC2)cc1 the results were PV pol inh 106.0 and PV pol inh intensity 109.0.
For O=C(C1CCN(S(=O)(=O)Cc2ccccc2)CC1)N1CCN(c2ccccc2F)CC1 the results were PV pol inh 113.0 and PV pol inh intensity 103.0.
For COc1ccc(OC)c(C(=O)CN2C(=O)N(c3ccc(C)cc3)S(=O)(=O)c3ccccc32)c1 the results were PV pol inh 104.0 and PV pol inh intensity 110.0.
`COc1ccc(-c2noc(CSc3nc4ccc(C)cc4[nH]3)n2)cc1` gave PV pol inh 103.0 and PV pol inh intensity 106.0.
`Cc1ccc(-n2ncc(C(=O)N3CCN(C4CCCCC4)CC3)c2C2CCN(C(=O)OC(C)(C)C)CC2)cc1` gave PV pol inh 105.0 and PV pol inh intensity 99.0.
`COc1ccc(NC(=O)CCNS(=O)(=O)c2cccc3nonc23)cc1` gave PV pol inh 101.0 and PV pol inh intensity 104.0.
`O=C(CCCCCn1c(=O)[nH]c2ccccc2c1=O)N1CCN(c2ccc(Cl)cc2)CC1` gave PV pol inh 106.0 and PV pol inh intensity 110.0.
`O=C(c1cc(S(=O)(=O)N2CCCC2)c[nH]1)N1CCN(c2cccc(Cl)c2)CC1` gave PV pol inh 103.0 and PV pol inh intensity 100.0.
Screening Cc1ccc(/C=C/C(=O)Nc2nc(-c3cccs3)ns2)cc1 returned PV pol inh 102.0 and PV pol inh intensity 110.0.
`COC(=O)Cc1c(C)c2cc3c(c(C)c2oc1=O)OCN(CCc1ccc(F)cc1)C3` gave PV pol inh 105.0 and PV pol inh intensity 108.0.
`Cc1cccc(C2NC(=O)c3c(sc4c3CCN(C)C4)N2)c1O` (configuration not stated) gave PV pol inh 110.0 and PV pol inh intensity 125.0.
For COc1ccc(-c2[nH]nc3nc(-c4cc(OC)c(OC)c(OC)c4)cc(C(=O)O)c23)cc1 the results were PV pol inh 105.0 and PV pol inh intensity 107.0.
CCN(C(=O)Cn1c(=O)oc2cc(S(=O)(=O)N3CCCCCC3)ccc21)c1cccc(C)c1 was read as PV pol inh 104.0 and PV pol inh intensity 106.0.
Screening Cc1cc(C)cc(NS(=O)(=O)c2ccc3[nH]cc(C(=O)NCc4ccccc4Cl)c(=O)c3c2)c1 returned PV pol inh 103.0 and PV pol inh intensity 97.0.
For CCOc1ccccc1CNC(=O)c1c(C)oc2ncnc(N3CCOCC3)c12 the results were PV pol inh 112.0 and PV pol inh intensity 113.0.
For COc1cccc(CNC(=O)CN2C(=O)COc3ccc(S(=O)(=O)Nc4ccccc4)cc32)c1 the results were PV pol inh 102.0 and PV pol inh intensity 104.0.
Screening CCOc1ccccc1NC(=O)c1nnn(CC(=O)Nc2ccccc2CC)c1N returned PV pol inh 113.0 and PV pol inh intensity 112.0.
`CCCN(Cc1cccs1)C(=O)Nc1ccc(Br)cc1F` gave PV pol inh 108.0 and PV pol inh intensity 111.0.
For O=C(Nc1cc(Cl)ccc1Cl)c1cc(S(=O)(=O)NCCc2ccccc2)ccc1F the results were PV pol inh 113.0 and PV pol inh intensity 106.0.
COc1ccc(-n2cc(C(=O)NCc3ccc(Cl)cc3)c3ccccc3c2=O)cc1 was read as PV pol inh 109.0 and PV pol inh intensity 96.0.
Screening CCC(C)c1ccc2oc(-c3ccc(NC(=O)c4cc5ccccc5o4)cc3)nc2c1 (configuration not stated) returned PV pol inh 112.0 and PV pol inh intensity 115.0.
COc1ccc(NC(=O)CCc2nc3c(C)nn(-c4ccc(C)cc4)c3n(C)c2=O)c(OC)c1 was read as PV pol inh 105.0 and PV pol inh intensity 106.0.
O=C(Nc1ccccc1F)C(Cc1ccccc1)n1cccc1 (configuration not stated) was read as PV pol inh 103.0 and PV pol inh intensity 107.0.
Cc1c(Cl)cccc1NC(=O)Cn1cc2c(n1)CCCC2 was read as PV pol inh 105.0 and PV pol inh intensity 109.0.
CCCNC(=O)c1ccc2c(c1)nc(C)n2-c1cccc(C)c1 was read as PV pol inh 108.0 and PV pol inh intensity 111.0.
For O=C(Nc1ccc(OC(F)(F)F)cc1)C1CCCN(S(=O)(=O)c2ccc(Br)s2)C1 (configuration not stated) the results were PV pol inh 110.0 and PV pol inh intensity 110.0.
CCN(Cc1ccccc1)C(=O)CN1C(=O)COc2ccc(S(=O)(=O)NC3CCCC3)cc21 was read as PV pol inh 105.0 and PV pol inh intensity 108.0.
`COc1ccc(N2CCN(c3nc4ccc(C)cc4n4nnnc34)CC2)cc1` gave PV pol inh 106.0 and PV pol inh intensity 104.0.
For COc1ccc2c(c1)CC(C(=O)NCCCN1CCN(c3ccc(F)cc3)CC1)CO2 (configuration not stated) the results were PV pol inh 111.0 and PV pol inh intensity 112.0.
CCC(Sc1nc2c(sc3ccccc32)c(=O)n1CCCC(=O)NC1CCCC1)C(=O)Nc1cccc(OC)c1 (configuration not stated) was read as PV pol inh 108.0 and PV pol inh intensity 105.0.
Cc1nc2c(c(C)c1CCC(=O)NCc1ccc(Cl)cc1)c(=O)n(C)c(=O)n2C was read as PV pol inh 113.0 and PV pol inh intensity 112.0.
For Cc1ccc(C(=O)NCC(c2cccs2)S(=O)(=O)c2cccs2)cc1 (configuration not stated) the results were PV pol inh 112.0 and PV pol inh intensity 110.0.
CCC1CN(C(=O)N2CCC(C(=O)NCc3ccc(C)o3)CC2)c2ccccc2O1 (configuration not stated) was read as PV pol inh 106.0 and PV pol inh intensity 106.0.
COC(=O)C1=C(C)NC(=O)NC1c1cn(-c2ccccc2)nc1-c1ccc(OC)c(Cl)c1 (configuration not stated) was read as PV pol inh 101.0 and PV pol inh intensity 105.0.
CCC(=O)N1CCc2cc(Br)cc(S(=O)(=O)NCc3cccc(OC)c3)c21 was read as PV pol inh 109.0 and PV pol inh intensity 110.0.
Cc1ccc(NC(=O)Cn2c(=O)nc(-c3ccccc3)c3ccccc32)cc1 was read as PV pol inh 114.0 and PV pol inh intensity 107.0.
For Cn1c(=O)c2c(SCC(=O)NCC3CCCO3)nc(-c3ccccc3F)nc2n(C)c1=O (configuration not stated) the results were PV pol inh 105.0 and PV pol inh intensity 110.0.
For Cc1ccc(-c2cn3c(n2)sc2cc(C(=O)NC(C)C45CC6CC(CC(C6)C4)C5)ccc23)cc1 (configuration not stated) the results were PV pol inh 102.0 and PV pol inh intensity 105.0.
Screening Cc1cccc(N(CC(=O)NCCSCc2cccc(Cl)c2)S(=O)(=O)c2ccccc2)c1C returned PV pol inh 107.0 and PV pol inh intensity 109.0.
Screening COc1cccc2c1cc1c(=O)n(CC(=O)N3CCN(c4cccc(Cl)c4)CC3)nc(C)n12 returned PV pol inh 104.0 and PV pol inh intensity 109.0.
Screening COc1ccc(CNC(=O)CN(C)S(=O)(=O)c2ccc3nc(C)sc3c2)cc1 returned PV pol inh 111.0 and PV pol inh intensity 114.0.
Screening CNS(=O)(=O)c1ccc(OC)c(-c2nnc3c4ccccc4c(C)nn23)c1 returned PV pol inh 107.0 and PV pol inh intensity 112.0.
O=S(=O)(NCCc1csc2nc(-c3ccc(F)cc3)nn12)c1ccc(Br)cc1 was read as PV pol inh 112.0 and PV pol inh intensity 119.0.
`Cc1ccc(C(=O)NCC(c2ccc3c(c2)OCO3)N2CCN(c3ccc(F)cc3)CC2)cc1` (configuration not stated) gave PV pol inh 110.0 and PV pol inh intensity 110.0.
Screening COc1cccc(N2CCN(S(=O)(=O)c3ccc(-c4cc(C(F)(F)F)on4)s3)CC2)c1 returned PV pol inh 109.0 and PV pol inh intensity 110.0.
CCCOc1ccc(C(=O)Nc2ccc3oc(-c4cccc(Cl)c4Cl)nc3c2)cc1 was read as PV pol inh 100.0 and PV pol inh intensity 107.0.
For Cc1ccc2c(=O)cc(C(=O)Nc3c(C)n(C)n(-c4ccccc4)c3=O)oc2c1 the results were PV pol inh 108.0 and PV pol inh intensity 107.0.
Screening COc1ccccc1-c1noc(CCC(=O)Nc2ccc(C)cc2C)n1 returned PV pol inh 105.0 and PV pol inh intensity 106.0.
For Cc1ccccc1CNC(=O)C(=O)NCC(c1ccco1)S(=O)(=O)c1ccccc1 (configuration not stated) the results were PV pol inh 110.0 and PV pol inh intensity 115.0.

Five neighbouring entries out of the list so far:
Screening COc1cccc(N2CCN(S(=O)(=O)c3ccc(-c4cc(C(F)(F)F)on4)s3)CC2)c1 returned PV pol inh 109.0 and PV pol inh intensity 110.0.
CCCOc1ccc(C(=O)Nc2ccc3oc(-c4cccc(Cl)c4Cl)nc3c2)cc1 was read as PV pol inh 100.0 and PV pol inh intensity 107.0.
For Cc1ccc2c(=O)cc(C(=O)Nc3c(C)n(C)n(-c4ccccc4)c3=O)oc2c1 the results were PV pol inh 108.0 and PV pol inh intensity 107.0.
Screening COc1ccccc1-c1noc(CCC(=O)Nc2ccc(C)cc2C)n1 returned PV pol inh 105.0 and PV pol inh intensity 106.0.
For Cc1ccccc1CNC(=O)C(=O)NCC(c1ccco1)S(=O)(=O)c1ccccc1 (configuration not stated) the results were PV pol inh 110.0 and PV pol inh intensity 115.0.

The list continues:
`Cc1oc(-c2ccc(C(=O)NCCc3ccc(Cl)cc3)cc2)nc1CSc1ccccc1` gave PV pol inh 113.0 and PV pol inh intensity 111.0.
For COc1ccccc1NC(=O)Cn1c(=O)n(CCC(=O)NCC2CCCO2)c(=O)c2cc(OC)c(OC)cc21 (configuration not stated) the results were PV pol inh 105.0 and PV pol inh intensity 102.0.
Cc1ccc(CNC(=O)c2cc(=O)c3cc(C)c(C)cc3o2)cc1 was read as PV pol inh 112.0 and PV pol inh intensity 118.0.
Screening CCOCCCn1c(=N)c(C(=O)NCc2ccco2)cc2c(=O)n3ccccc3nc21 returned PV pol inh 112.0 and PV pol inh intensity 115.0.
`CCOC(=O)c1cc(-c2ccc(C)cc2)n(CC(=O)Nc2ccc(OC)c(Cl)c2)c1C` gave PV pol inh 102.0 and PV pol inh intensity 104.0.
`CCCCNC(=O)CN1C(=O)CSc2ccc(S(=O)(=O)N3CCC(C)CC3)cc21` gave PV pol inh 104.0 and PV pol inh intensity 107.0.
Screening Fc1ccc(-c2noc3ncnc(N4CCN(c5ccccc5)CC4)c23)cc1 returned PV pol inh 107.0 and PV pol inh intensity 109.0.
Cc1cccc(CNC(=O)C2CCN(S(=O)(=O)c3ccc4c(c3)CCCN4C(=O)C3CCC3)CC2)c1 was read as PV pol inh 111.0 and PV pol inh intensity 111.0.
Screening Cc1ccccc1Cn1c(=O)n(Cc2ccco2)c(=O)c2oc3ccccc3c21 returned PV pol inh 102.0 and PV pol inh intensity 107.0.
CCN1CCN(C(=O)c2ccc3c(c2)N(Cc2cccc(F)c2)C(=O)c2ccccc2S3)CC1 was read as PV pol inh 104.0 and PV pol inh intensity 110.0.
`Cc1ccc(NC(=O)C2CCN(S(=O)(=O)c3cccc4nonc34)CC2)cc1C` gave PV pol inh 113.0 and PV pol inh intensity 120.0.
`Cc1ccc(CCNC(=O)c2ccc(CSCc3ccc(C)cc3)o2)cc1` gave PV pol inh 106.0 and PV pol inh intensity 107.0.

7 records picked at random from those above, as already listed:
`Cc1ccc(CCNC(=O)c2ccc(CSCc3ccc(C)cc3)o2)cc1` gave PV pol inh 106.0 and PV pol inh intensity 107.0.
Cc1ccc(CNC(=O)c2cc(=O)c3cc(C)c(C)cc3o2)cc1 was read as PV pol inh 112.0 and PV pol inh intensity 118.0.
Screening CCOCCCn1c(=N)c(C(=O)NCc2ccco2)cc2c(=O)n3ccccc3nc21 returned PV pol inh 112.0 and PV pol inh intensity 115.0.
`CCOC(=O)c1cc(-c2ccc(C)cc2)n(CC(=O)Nc2ccc(OC)c(Cl)c2)c1C` gave PV pol inh 102.0 and PV pol inh intensity 104.0.
`Cc1ccc(NC(=O)C2CCN(S(=O)(=O)c3cccc4nonc34)CC2)cc1C` gave PV pol inh 113.0 and PV pol inh intensity 120.0.
For COc1ccccc1NC(=O)Cn1c(=O)n(CCC(=O)NCC2CCCO2)c(=O)c2cc(OC)c(OC)cc21 (configuration not stated) the results were PV pol inh 105.0 and PV pol inh intensity 102.0.
CCN1CCN(C(=O)c2ccc3c(c2)N(Cc2cccc(F)c2)C(=O)c2ccccc2S3)CC1 was read as PV pol inh 104.0 and PV pol inh intensity 110.0.

An excerpt. The share of hits here may be higher or lower than overall.
